ID4 SMM = binds human ID4 protein on microarray | P47928 | calls only | 31,000 compounds, 1.2% hits | small molecule microarray, Flag-ID4 binding, fluorescence F/B | AID 624137;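 active = spot signal over background at p below 0.07 in all four prints; compounds were printed on slides so no solution concentration is given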;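 note: a binder raises fluorescence above local background on the spot; about 2 pmol printed per array spot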
Target sequence (P47928 whole entry, looked up): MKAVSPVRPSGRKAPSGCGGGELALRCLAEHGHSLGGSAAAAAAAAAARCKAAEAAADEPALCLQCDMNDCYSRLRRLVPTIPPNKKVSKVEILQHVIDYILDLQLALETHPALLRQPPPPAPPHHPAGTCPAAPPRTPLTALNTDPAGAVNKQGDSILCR
Calls only; i = inactive. This is a subset (hit frequency here may not be typical).

SMILES | ID4 SMM
Cc1ccc(-c2cc(C(=O)NCc3ccco3)no2)cc1 | i
COc1c(O)ccc(C(c2cn(C)c3ccccc23)c2cn(C)c3ccccc23)c1[N+](=O)[O-] | i
C[C@@H]1CN([C@H](C)CO)C(=O)c2cc(-c3ccccc3)cnc2O[C@H]1CN(C)Cc1ccccc1 | i
O=C(C[C@H]1CC[C@@H](NC(=O)C2CC2)[C@@H](CO)O1)NCC1CC1 | i
COc1ccc(C(=O)Nc2ccccc2)cc1S(=O)(=O)NCc1ccco1 | i
COC(=O)c1cc(Br)ccc1NC(=O)COc1ccc(Cl)cc1C | i
Nc1cc(N)nc(SCC(=O)c2ccc(Br)cc2)n1 | i
O=C(C[C@H]1CC[C@H](NC(=O)C2CC2)[C@@H](CO)O1)NCc1ccccc1Cl | i
COc1cccc2cc(C(=O)C3C(=O)C(=O)N(CCN4CCOCC4)C3c3cccc(Br)c3)oc12 (centres undefined) | i
O=C(N[C@@H]1CC[C@@H](CC(=O)N2CCN(c3ccccc3)CC2)O[C@@H]1CO)c1ccncc1 | i
O=C(CSC1CC(=O)N(c2ccc(I)cc2)C1=O)Nc1cccc(F)c1 (centres undefined) | i
N#C[C@@H]1[C@@H](c2ccc(C#Cc3ccccc3F)cc2)[C@@H](CO)N1C(=O)C1CCC1 | i
Cc1ccc(-c2ccc3c(c2)O[C@@H](CN(C)C(=O)Nc2ccc(C(F)(F)F)cc2)[C@@H](C)CN([C@H](C)CO)S3(=O)=O)cc1 | i
C[C@@H]1CN([C@H](C)CO)S(=O)(=O)c2ccc(C#CC3CCCCC3)cc2O[C@H]1CN(C)C | i
O=C(NCc1cccs1)c1cc(-c2ccccc2)oc1C(F)(F)F | i
COc1ccc(-c2cnc3c(c2)C(=O)N([C@@H](C)CO)C[C@H](C)[C@@H](CN(C)Cc2cccnc2)O3)cc1 | i
CCC(=O)N[C@H]1C=C[C@H](CC(=O)OC)O[C@H]1CO | i
COc1ccc(OC)c(S(=O)(=O)Nc2cc(OC)c(Cl)cc2OC)c1 | i
C[C@@H]1CN([C@H](C)CO)C(=O)c2cc(/C=C/c3ccccc3)cnc2O[C@H]1CN(C)C(=O)Cc1ccccn1 | i
C[C@@H](NC(=O)C[C@@H]1CC[C@@H](NC(=O)c2cccnc2)[C@@H](CO)O1)c1ccccc1 | i
Cc1noc(C)c1S(=O)(=O)N(C)C[C@H]1OCc2ccccc2-c2c(n(C)c3ccccc23)C(=O)N([C@H](C)CO)C[C@H]1C | i
CCOC(=O)c1ccc(NC(=O)C2C3CCC(C3=C(C)C)C2C(=O)O)cc1 (centres undefined) | i
COc1cc(-c2nnn(CC(=O)Nc3c(C)cccc3C)n2)cc(OC)c1OC | i
COc1ccc([Si](C)(C)[C@H]2[C@H](CCO)O[C@@]3(C(=O)N(C)c4ccccc43)[C@@H]2C)cc1 | i
CCN(CC(N)=O)S(=O)(=O)c1ccc(OC)cc1 | i
The list continues.
SMILES | ID4 SMM
NS(=O)(=O)c1cc2c(cc1Cl)NC(C1CC3C=CC1C3)NS2(=O)=O (centres undefined) | i
C[C@@H]1CN([C@@H](C)CO)C(=O)c2cc(C3=CCCCC3)cnc2O[C@H]1CN(C)Cc1ccccn1 | i
C[C@H]1CN([C@@H](C)CO)C(=O)c2cc(-c3ccccc3F)cnc2O[C@@H]1CN(C)Cc1ccc(F)cc1 | i
c1ccc(CCc2nn3c(COc4ccccc4)nnc3s2)cc1 | i
O=C(NCc1cccnc1)c1cc2cc(Cl)ccc2oc1=O | i
Cc1ccc2oc(-c3cccc(NC(=O)COc4ccccc4C)c3C)nc2c1 | i
CC1CCN(CC(=O)Nc2sc3c(c2C(=O)Nc2ccccc2)CCCC3)CC1 | i
COc1cc2ccc(=O)oc2c(O)c1OCC=C(C)C | i
Cc1cc(Cl)ccc1OCC(=O)Nc1ccc(Br)cc1C(=O)O | i
CO[C@H](CN(C)C(=O)c1ccccc1F)[C@@H](C)CN([C@H](C)CO)S(=O)(=O)c1ccc(Cl)cc1 | i
CCCNCC(O)COc1ccccc1C(=O)CCc1ccccc1 (centres undefined) | i
COc1ccccc1NC(=O)c1sc2ncn(CC(=O)Nc3ccccc3C)c(=O)c2c1C | i
CCn1nc(C)c(NC(=O)CSc2nnc(-c3ccco3)n2C)c1C | i
O=C(C[C@H]1C=C[C@@H](NC(=O)CC2CC2)[C@H](CO)O1)NCc1ccc(Cl)cc1 | i
CC(C)(C)OC(=O)N1C[C@@H]2C(NC(=O)c3nsc(Cl)c3Cl)[C@@H]2C1 (some centres undefined) | i
O=C(O)CNS(=O)(=O)c1ccc(-c2ccccc2)cc1 | i
Nc1cc(=O)[nH]c(SCC(=O)Nc2ccc(Br)cc2Cl)n1 | i
CN1CCN(CCCN2c3ccccc3Sc3ccc(Cl)cc32)CC1 | i
COc1ccccc1NC(=O)CSc1n[nH]c(-c2ccncc2)n1 | i
C/C(=N\n1c(-c2ccccc2)n[nH]c1=O)c1ccccc1 | i
C[C@H]1CN([C@@H](C)CO)C(=O)c2cc(C#CC3(O)CCCC3)cnc2O[C@H]1CN(C)C(=O)Cc1cccnc1 | i
CN(C)C(=O)C[C@H]1CC[C@@H](NC(=O)Nc2cccc(F)c2)[C@H](CO)O1 | i
Cc1cc(I)ccc1NC(=O)CN(c1cc(Cl)ccc1C)S(C)(=O)=O | i
Cc1cc2ncc(-c3ccn(S(=O)(=O)c4ccc(Cl)cc4)c3)nc2cc1C | i
CCOC(=O)Nc1c[n+](N2CCOCC2)no1 | i
Next part
SMILES | ID4 SMM
O=C(CSc1nc2ccccc2s1)Nc1ccccc1N1CCOCC1 | i
O=C(Nc1ccccc1-c1nc2ccccc2s1)c1ccc(-c2ccccc2[N+](=O)[O-])o1 | i
C[C@H](CO)N1C[C@H](C)[C@@H](CN(C)C(=O)c2ccccc2)OCc2ccccc2-c2ccccc2C1=O | i
O=C(C[C@@H]1C=C[C@@H](NC(=O)c2cccnc2)[C@@H](CO)O1)NCCN1CCCCC1 | i
O=c1ccc2ccc(Oc3ncnc4scc(-c5ccc(F)cc5)c34)cc2o1 | i
O=C(COc1ccc([N+](=O)[O-])cc1)Nc1ccc2oc(-c3ccccc3F)nc2c1 | i
Cc1ccccc1CN(C)C[C@@H]1OCc2cn(nn2)CCCC(=O)N([C@H](C)CO)C[C@@H]1C | i
Cc1nc2sccn2c(=O)c1CCN1CCC(=C(c2ccccc2)c2ccc(F)cc2)CC1 | i
COCC(=O)N(C)C[C@@H]1Oc2ncc(C#CCC3CCCC3)cc2C(=O)N([C@@H](C)CO)C[C@H]1C | i
CN1CCN(C(=O)C[C@H]2CC[C@H](NS(=O)(=O)c3cccc(F)c3)[C@H](CO)O2)CC1 | i
CS(=O)(=O)N(CC(=O)Nc1ccc(I)cc1)C1CCCCC1 | i
O=C(O)CN(c1ccc2c(c1)OCCO2)S(=O)(=O)c1ccccc1 | i
C[C@@H]1CN([C@@H](C)CO)C(=O)c2cc(Br)cnc2O[C@@H]1CN(C)Cc1cccc(F)c1 | i
C[C@H](CO)N1C[C@H](C)[C@@H](CN(C)Cc2ccncc2)Oc2ncc(C#CC3CCCCC3)cc2C1=O | i
Cc1cccc(NC(=O)CSc2nnc(-c3ccccc3)n2C2CCCCC2)c1C | i
COc1ccc(NC(=O)CSc2nnnn2C)cc1 | i
COc1ccc(OC)c(NC(=O)Cn2nc([N+](=O)[O-])cc2C)c1 | i
COc1ccccc1-c1cnc2c(c1)C(=O)N([C@H](C)CO)C[C@@H](C)[C@@H](CN(C)Cc1cccc(F)c1)O2 | i
O=C(CSc1ncnc2sc3c(c12)CCCC3)Nc1cccc(F)c1 | i
COc1ccc(OC)c(NC(=O)c2ccc(CSc3nnnn3C)cc2)c1 | i
CC1(C)CC[C@]2(C(=O)O[C@@H]3O[C@H](CO)[C@@H](O)[C@H](O)[C@H]3O)CC[C@]3(C)C(=CCC4[C@@]5(C)C[C@@H](O)[C@H](O)[C@@](C)(CO)C5[C@H](O)C[C@]43C)C2[C@@H]1O (some centres undefined) | i
Cn1c(SCC(=O)Nc2ccc(C(N)=O)cc2)nnc1-c1ccccn1 | i
COc1ccc(OC)c(NC(=O)COc2ccc([N+](=O)[O-])cc2)c1 | i
O=C(C[C@H]1C=C[C@@H](NC(=O)CN2CCOCC2)[C@H](CO)O1)NCc1cccc(F)c1 | i
Nc1ccc(-c2nnc(SCC(=O)c3ccc(F)cc3)n2-c2ccccc2)cc1 | i
Additional structures follow:
SMILES | ID4 SMM
C[C@H]1CN([C@@H](C)CO)S(=O)(=O)c2ccc(/C=C/c3ccccc3)cc2O[C@@H]1CN(C)C(=O)c1ccc2c(c1)OCO2 | i
CC1(C)O[C@@H]2C[C@H]3[C@@H]4CCC5=CC(=O)CC[C@]5(C)[C@@]4(F)[C@@H](O)C[C@]3(C)[C@]2(C(=O)CCl)O1 | i
O=C(N[C@@H]1CC[C@@H](CC(=O)N2CCCCC2)O[C@@H]1CO)c1cccc(F)c1 | i
CNC[C@H]1Oc2ccc(N(C)C)cc2C(=O)N([C@@H](C)CO)C[C@H]1C | i
C[C@H]1CN([C@@H](C)CO)C(=O)c2cc(-c3ccccc3)cnc2O[C@H]1CN(C)Cc1cccnc1 | i
Cc1ccc(S(=O)(=O)N(C)C[C@H]2Oc3ncc(C#CC4(O)CCCC4)cc3C(=O)N([C@@H](C)CO)C[C@@H]2C)cc1 | i
C[C@@H]1CN([C@@H](C)CO)S(=O)(=O)c2ccc(-c3cccc(F)c3)cc2O[C@H]1CN(C)CC1CC1 | i
CCCNC(=O)N1[C@H](CO)[C@H](c2ccc(-c3cccnc3)cc2)[C@@H]1C#N | i
C[C@@H]1CN([C@@H](C)CO)C(=O)c2cc(-c3ccc(F)cc3)cnc2O[C@H]1CN(C)C(=O)Cc1ccccc1 | i
COc1ccccc1NC(=O)c1cnc(Nc2nc3ccccc3o2)nc1C | i
CC(C)[C@@H](C)NC(=O)N(C)C[C@H]1OCc2ccccc2-c2ccccc2C(=O)N([C@H](C)CO)C[C@@H]1C | i
O=C(NCC1CCCCN1)c1cc(OCC(F)(F)F)ccc1OCC(F)(F)F (centres undefined) | i
COc1ccc(CN=Cc2ccc(C(F)(F)F)cc2)cc1 | i
Cc1cc(Cl)c(S(=O)(=O)Nc2ccc3c(c2)CCC3)cc1OCC(N)=O | i
C/C=C/c1cnc2c(c1)C(=O)N([C@@H](C)CO)C[C@@H](C)[C@H](CN(C)Cc1ccccc1F)O2 | i
O=C(C[C@H]1C[C@H]2c3cc(NC(=O)Nc4ccccc4F)ccc3O[C@H]2[C@H](CO)O1)NCCc1ccccc1 | i
O=C(c1cnc2ccccn12)C(F)(F)SCc1c(Cl)cccc1Cl | i
O=C(CSc1nnc(-c2ccccn2)n1-c1ccccc1)Nc1ccc2cn[nH]c2c1 | i
COc1ccc(C)cc1N(CC(=O)Nc1cccc(Cl)c1Cl)S(C)(=O)=O | i
CN(C)C(=O)C[C@@H]1C[C@H]2c3cc(NC(=O)C4CCC4)ccc3O[C@H]2[C@H](CO)O1 | i
COc1cccc(C(=O)Nc2cc(C)ccc2NC(=O)COc2ccccc2)c1 | i
COC(=O)C[C@@H]1C[C@@H]2c3cc(NS(C)(=O)=O)ccc3O[C@@H]2[C@@H](CO)O1 | i
C[C@H](CO)N1C[C@H](C)[C@H](CN(C)CC2CC2)Oc2ncc(-c3cccc(C(=O)N(C)C)c3)cc2C1=O | i
C[C@@H]1CN([C@@H](C)CO)C(=O)c2cc(C#Cc3ccncc3)cnc2O[C@@H]1CN(C)CC1CCOCC1 | i
CCOc1cc(S(=O)(=O)NCc2ccco2)c(C)cc1C | i

Part of the list above, as labelled records:
O=C(Nc1ccccc1-c1nc2ccccc2s1)c1ccc(-c2ccccc2[N+](=O)[O-])o1
  ID4 SMM: i

O=C(C[C@H]1CC[C@@H](NC(=O)C2CC2)[C@@H](CO)O1)NCC1CC1
  ID4 SMM: i

CC1(C)O[C@@H]2C[C@H]3[C@@H]4CCC5=CC(=O)CC[C@]5(C)[C@@]4(F)[C@@H](O)C[C@]3(C)[C@]2(C(=O)CCl)O1
  ID4 SMM: i

C[C@@H](NC(=O)C[C@@H]1CC[C@@H](NC(=O)c2cccnc2)[C@@H](CO)O1)c1ccccc1
  ID4 SMM: i

The main list resumes with the 5 entries that preceded the break.
SMILES | ID4 SMM
COc1cccc(C(=O)Nc2cc(C)ccc2NC(=O)COc2ccccc2)c1 | i
COC(=O)C[C@@H]1C[C@@H]2c3cc(NS(C)(=O)=O)ccc3O[C@@H]2[C@@H](CO)O1 | i
C[C@H](CO)N1C[C@H](C)[C@H](CN(C)CC2CC2)Oc2ncc(-c3cccc(C(=O)N(C)C)c3)cc2C1=O | i
C[C@@H]1CN([C@@H](C)CO)C(=O)c2cc(C#Cc3ccncc3)cnc2O[C@@H]1CN(C)CC1CCOCC1 | i
CCOc1cc(S(=O)(=O)NCc2ccco2)c(C)cc1C | i
COC(=O)c1sc2ncn(CC(=O)Nc3cccc(Cl)c3C)c(=O)c2c1C | i
C[C@@H]1CN([C@@H](C)CO)C(=O)c2cc(C#CC3CCCC3)cnc2O[C@H]1CN(C)C(=O)C1CCC1 | i
Cc1ccc(N(C(C)C(=O)Nc2ccc(C(F)(F)F)cc2)S(C)(=O)=O)cc1 (centres undefined) | i
COc1ccc(S(=O)(=O)N(C)CC(N)=O)cc1 | i
Nc1cccc(S(=O)(=O)NCc2ccco2)c1 | i
COc1cccc(-n2nnnc2SCC(=O)Nc2ccccc2OC)c1 | i
Cc1cc(OCC(=O)Nc2ccccc2C(=O)Nc2ccccc2)ccc1Cl | i
c1csc(-c2nn3c(C4COc5ccccc5O4)nnc3s2)c1 (centres undefined) | i
O=C(Nc1ccc2c(c1)[C@H]1C[C@@H](CC(=O)N3CCc4ccccc4C3)O[C@@H](CO)[C@H]1O2)C1CCC1 | i
Cc1cc(=O)[nH]c(SCCCOc2ccc(C(C)C)c(C)c2)n1 | i
CC(C)c1ccccc1NC(=O)CCCN1C(=O)c2ccccc2C1=O | i

Compound activity deposited in PubChem BioAssay by Broad Institute.
